FGF22 binding: shifts melting point of recombinant human FGF22 | recombinant FGF22 thermal shift, SYPRO orange fluorescence; percent of sucrose octasulfate shift, DMSO zero | calls only at 9.99 µM | actives 1.5% (n = 340,000) | AID 651658;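 active = melting point raised past a set limit in the mean and every replicate; inconclusive = no clear call; three in four hits are not shown here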
Target sequence (Q9HCT0 whole entry, looked up): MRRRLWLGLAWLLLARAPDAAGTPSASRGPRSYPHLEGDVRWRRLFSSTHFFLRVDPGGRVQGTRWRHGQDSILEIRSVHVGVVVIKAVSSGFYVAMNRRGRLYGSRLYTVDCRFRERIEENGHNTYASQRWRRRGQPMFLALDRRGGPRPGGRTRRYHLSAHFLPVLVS
Ecoli rRNA inh: inhibits bacterial ribosomal RNA function over humanized ribosomes. actives 1.6% (n = 350,000). GFP signal change (wild-type ribosome), % (no concentration beside the values). E. coli WT GFP vs humanized-ribosome RFP mutants, fluorescence, 24 h; stronger effect = lower value; DMSO median 0, no signal -100;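 active = significant combined selectivity score with lowered wild-type GFP, culture density cut under 30%, mutant RFP and density less affected; inactive = any of these conditions unmet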; also: one replicate is shown; some compounds called inactive have numbers as strong as hits
MLL AF4-AF9 inh: MLL-AF4/AF9 protein interaction inhibition; AlphaScreen, biotin-AF4 peptide binding to FLAG-AF9; inhibition, % at 10 µM; actives 0.47% (n = 350,000); AID 651704;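 active = every replicate reaching a set inhibition limit, whatever the replicate mean, cut at about 25% in these data; inconclusive = mean inhibition reaches that limit but some replicates miss it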;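 also: 0% = plate neutral control median and 100% = total signal loss; the record names both 10 and 1 µM as test concentration; the first replicate is given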
Vif A3G: inhibitors of Vif binding to APOBEC3G peptide, primary screen, biochemical, TR-FRET, GST-Vif 1-94, biotin-A3G peptide, dose response retest (AID 1117319); TR-FRET GST-Vif / biotin-A3G peptide binding; higher % means a stronger effect; test concentration not given here; strong numbers were not always called active; inhibition, %; hits with a dose series show IC50 in µM; actives 0.57% (n = 260,000);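 active = above the screen mean plus three standard deviations and confirmed in dose response; inconclusive = results disagree or hit not tested in dose response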;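 also: Vif residues 1-94 fused to GST binding biotinylated APOBEC3G peptide 110-148; 0% = full assay without inhibitor and 100% = GST in place of GST-Vif; retest series ran down from 100 µM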
HNF4A DNA FP: change in binding of human HNF4 alpha to DNA. P41235. HNF4a-FITC DNA binding, fluorescence polarization, 1 h. AID 1224865. activity change, % at 10 µM. actives 0.3% (n = 360,000); in the data active = activity change above about 30%, passing the limit was not always enough;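 also: controls were the assay level and a saturating level of protein; the project sought stronger binding though the title names inhibitors; some compounds called inactive have numbers as strong as hits; positive values seem to mean higher polarization but the record does not say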
Target sequence (P41235 whole entry, looked up): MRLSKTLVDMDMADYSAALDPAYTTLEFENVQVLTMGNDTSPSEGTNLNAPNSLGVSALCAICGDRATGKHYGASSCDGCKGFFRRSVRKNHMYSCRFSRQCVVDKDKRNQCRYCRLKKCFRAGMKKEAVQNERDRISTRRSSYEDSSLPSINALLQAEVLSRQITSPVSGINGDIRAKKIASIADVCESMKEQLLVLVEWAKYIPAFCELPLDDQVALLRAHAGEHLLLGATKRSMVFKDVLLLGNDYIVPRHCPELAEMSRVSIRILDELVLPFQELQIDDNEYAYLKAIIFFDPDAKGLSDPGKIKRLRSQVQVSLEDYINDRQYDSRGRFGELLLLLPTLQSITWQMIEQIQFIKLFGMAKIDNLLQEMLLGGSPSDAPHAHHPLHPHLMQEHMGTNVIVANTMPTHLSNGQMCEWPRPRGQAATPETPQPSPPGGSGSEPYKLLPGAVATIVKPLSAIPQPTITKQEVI
ALR H2O2 inh: inhibitors of human sulfhydryl oxidase ALR. purified ALR, DTT oxidation, H2O2 HRP-luminol luminescence. inhibition, % (concentration not given with the values). actives 3.8% (n = 290,000);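 active = mean and each replicate at 75% or more; inconclusive = only one of the two met; inactive = neither met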;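 also: stock transfer was 7.5 nL into about 7.5 µL; 0% = neutral wells and 100% = wells with inactivated enzyme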
Target sequence (P55789 whole entry, looked up): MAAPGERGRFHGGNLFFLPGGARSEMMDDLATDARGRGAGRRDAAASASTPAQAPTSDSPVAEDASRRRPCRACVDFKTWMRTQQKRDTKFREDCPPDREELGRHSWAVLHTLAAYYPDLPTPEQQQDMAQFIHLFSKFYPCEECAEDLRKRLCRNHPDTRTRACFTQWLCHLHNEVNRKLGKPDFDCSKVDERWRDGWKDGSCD
E coli growth: E. coli growth inhibition | Escherichia coli growth, OD600, 23 h; stronger effect = lower value | OD600 absorbance (no concentration beside the values) | actives 0.21% (n = 330,000) | AID 1053175;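 active = OD600 absorbance below the run mean of sample wells minus 3.6 SD, in any replicate, cut at about 0.56 in these data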;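 also: stock transfer was 300 nL into about 60 µL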
Ecoli rRNA inh OD600: second read-out of Ecoli rRNA inh, no call of its own (marks repeat the call); OD600 change, %; measured here: OD600 growth;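 optical density of the mix in the first replicate; 0 = DMSO median and -100 = no signal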
Ecoli rRNA inh RFP: recorded beside Ecoli rRNA inh, whose call it bears; RFP signal change, %; measured here: RFP humanized mutant strains;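 first replicate; 0 = DMSO median and -100 = no signal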
The depositor's hits bear a star; i = inactive; ? = inconclusive; . = not tested or not shown; & = joins results of further samples. An excerpt (hit frequency here may not be typical).

SMILES	FGF22 binding	Ecoli rRNA inh	Ecoli rRNA inh OD600	Ecoli rRNA inh RFP	MLL AF4-AF9 inh	Vif A3G	HNF4A DNA FP	ALR H2O2 inh	E coli growth
C[C@H]1CN([C@@H](C)CO)C(=O)c2c(c3ccccc3n2C)-c2ccccc2CO[C@@H]1CN(C)C(=O)CCN(C)C	i	2.2	8.9	-3.5	-2.8	.	.	.	.
CC1=C/C(=N\NC(=S)Nc2cccnc2)CC(C)(C)C1	.	0.3	4.9	-0.7	8.5	.	-1.2	.	.
O=C(c1nc2ccc(Cl)cn2c1CNCCc1cnccn1)N1CCCCCCC1	i	4.5	3.5	-0.1	0.9	.	1.9	1.7	0.707
COCCCn1cc(CN2CC(N(C)C)CS2(=O)=O)nn1 (centres undefined)	i	23.9	22.5	4.3	-2.6	.	3.5	.	.
CC(C)NC(=S)NCc1cccnc1	.	.	.	.	.	.	2.6	-18.3	0.728
COc1ccc(OC)c(S(=O)(=O)NC(N)=NCCc2ccccc2)c1	i	12.1	-0.7	-1.4	-0.2	-2.4%	-1.9	-12.5	0.669
COc1ccccc1/C=C/C(=O)NNC(=O)c1cccs1	i	-0.1	-1.6	0.1	0.0	.	2.7	-20.7	0.672
Cc1ccc(CNS(=O)(=O)c2ccc(F)c(F)c2)n1C	.	1.5	4.3	0.0	2.9	.	-0.9	-3.4	0.662
Cc1nn(-c2ccccc2)c(Cl)c1/C=N/Nc1ccc(Cl)c(C(=O)O)c1	.	.	.	.	.	14.8%	1.3	95.8*	.
CCC1(CC)NC(=O)N(Cc2nc3ccccc3s2)C1=O	.	-6.8	-5.1	-3.3	-11.7	12.1%	4.9	-5.2	0.668
Cn1c(NC(=O)/C=C\c2ccccc2)cc(=O)n(C)c1=O	i	5.7	20.1	-0.4	5.3	-2.0%	-0.3	-17.9	.
CCn1ccc(C(=O)NC2=C(C#N)CCC2)n1	.	.	.	.	.	7.0%	-0.5	-2.1	0.697
O=C1c2ccccc2C(Nc2ccc(Cl)cn2)N1Cc1ccccc1 (centres undefined)	i	0.1	-41.6	-6.8	1.0	?	-1.9	.	0.734
O=C(CCCCCNc1nc(=S)[nH]c2ccccc12)N1CCN(c2ccccn2)CC1	.	.	.	.	.	-5.9%	-0.5	19.0	0.624
COC(=O)c1cc(OC)c(OC)cc1NCC(=O)Nc1ccc(OC)c(OC)c1	.	.	.	.	.	.	-1.9	-13.5	0.722

Brought forward from above: two entries, then new ones.
SMILES	FGF22 binding	Ecoli rRNA inh	Ecoli rRNA inh OD600	Ecoli rRNA inh RFP	MLL AF4-AF9 inh	Vif A3G	HNF4A DNA FP	ALR H2O2 inh	E coli growth
O=C(CCCCCNc1nc(=S)[nH]c2ccccc12)N1CCN(c2ccccn2)CC1	.	.	.	.	.	-5.9%	-0.5	19.0	0.624
COC(=O)c1cc(OC)c(OC)cc1NCC(=O)Nc1ccc(OC)c(OC)c1	.	.	.	.	.	.	-1.9	-13.5	0.722
OC(COc1ccc(Cl)cc1)CSc1ccccn1 (centres undefined)	i	-19.7	-17.0	0.7	3.2	.	-2.0	0.8	0.667
O=C1NC(=S)NC1Cc1ccc(O)cc1 (centres undefined)	i	-12.1	14.3	-2.5	-1.3	-9.5%	2.1	.	0.676
CC(C)c1ccc2c(c1)CC[C@H]1[C@](C)(CN)CCC[C@]21C	i	8.4	17.1	-1.5	3.1&-15.2	.	5.1&-3.8	.	.
C/C=C/c1cnc2c(c1)C(=O)N([C@H](C)CO)C[C@H](C)[C@@H](CN(C)C(=O)Cc1ccccc1)O2	i	2.6	-1.6	-2.4	-1.8	.	.	.	.
CCOC(=O)c1ccc(N2C(=O)C3CCCN3C2=S)cc1 (centres undefined)	i	-1.4	3.8	-5.1	0.7	-3.0%	1.3	.	0.711
CC(C)NC(=O)Nc1ccc2c(c1)C(=O)N([C@@H](C)CO)C[C@H](C)[C@@H](CN(C)C(=O)CCCN(C)C)OCCCC[C@@H](C)O2	i	2.6	6.5	-1.2	1.6	.	.	.	.
O=C(CNCCO)NC12CC3CC(CC(C3)C1)C2	.	.	.	.	.	0.5%	3.1	.	0.706
CC1(Cc2ccccc2Cl)C(=O)Nc2cc(-c3ccccc3Cl)ccc21 (centres undefined)	i	-1.5	-4.1	2.4	7.6	.	0.2	.	.
CCc1ccc(C(=O)N/N=C/c2ccncc2)s1	i	1.1	8.5	-1.2	0.6	.	3.7	4.2	.
O=C(O)c1c2c(nc3ccc(Cl)cc13)CCC2	i	17.1	15.7	7.3	-4.0	23.4µM*	-5.6	51.0	0.703
COc1ccc(-n2nc(C(=O)NCC(=O)NCC3CCCO3)c3ccccc3c2=O)c(OC)c1 (centres undefined)	.	.	.	.	.	10.7%&2.5%	4.0	.	0.702
O=C(O)COc1cccc(NC(=O)c2ccccc2)c1	.	.	.	.	.	11.7%	-0.1	-3.9	0.668
C/C(=N\NC(=O)c1ccc([N+](=O)[O-])c(C)c1)c1ccccc1Cl	.	.	.	.	.	-6.5%	0.0	-2.6	.
CC(NS(=O)(=O)c1ccccc1)C(c1cccs1)N1CCOCC1 (centres undefined)	i	3.0	1.1	-3.2	2.7	.	0.1	-10.0	0.739
COc1ccc(C(=O)NCc2cccc(Cl)c2)cc1S(=O)(=O)N1CCOCC1	i	.	.	.	1.1	.	2.0	1.0	0.609
CS(=O)(=O)N(Cc1ccccc1F)c1ccccc1	.	.	.	.	.	1.6%	1.6	1.5	0.725
O=C(O)c1cc([N+](=O)[O-])cc2ccccc12	i	11.4	11.2	0.9	2.6	-6.1%	-0.7	.	0.657
NS(=O)(=O)c1ccc(CNC(=O)C23CC4CC(CC(C4)C2)C3)cc1	.	.	.	.	.	1.4%	-1.7	-3.6	0.729
C[C@H](NC(=O)[C@@H]1CSC2c3ccccc3C(=O)N21)C(=O)NCCc1ccc(F)cc1 (some centres undefined)	i	14.1	0.4	6.6	0.2	.	-0.3	-1.0	0.649
CC(C)(C)[C@H]1C=C(C(=O)N2CCN(Cc3ccccc3)CC2)O[C@@H](OCc2ccc(CO)cc2)C1	i	-24.4	-40.9	-9.7	8.0&2.4	12.3%	-4.0	.	.
OC(CNCc1cccnc1)COc1ccc2ccccc2c1 (centres undefined)	i	-6.9	-6.7	-4.5	-3.9	2.2%	-0.8	-29.7	0.696
CC1CCc2c(sc(NC(=O)C3=COCCO3)c2C(N)=O)C1 (centres undefined)	i	-5.7	1.2	-0.4	-6.4	-4.0%	7.4	-3.0	0.685
Cc1cccc(C)c1NC(=O)C1CCCN1S(=O)(=O)c1ccc2c(c1)n(C)c(=O)c(=O)n2C (centres undefined)	.	.	.	.	.	-4.3%	-0.9	17.2	0.74
C[C@@H]1CN([C@H](C)CO)C(=O)c2cccc(NC(=O)C3CCCCC3)c2O[C@H]1CN(C)Cc1ccncc1	i	-0.2	-0.7	-0.3	0.5	.	.	.	.
COc1ccc(CCNC(=O)Cc2cc(OC)c(OC)cc2[N+](=O)[O-])cc1OC	.	.	.	.	.	-3.8%	3.1	-9.0	0.76
O=C(C[C@@H]1CC[C@H]2[C@@H](COC[C@@H](O)CN2C(=O)c2ccc(F)cc2)O1)Nc1nccs1	i	1.3	0.1	0.2	-0.6	.	.	.	.
Cc1ccc(C)c(NC(=S)N(Cc2ccco2)C(C)c2cccs2)c1 (centres undefined)	i	18.9	20.4	-7.8	2.9	2.8%	3.0	0.4	0.731
Cc1ccc(NC2CCCN(C(=O)CN3C(=O)c4ccccc4C3=O)C2)cc1C (centres undefined)	i	5.0	-2.0	6.2	6.6	6.5%	0.8	92.6*	0.701
Cc1c(CC(=O)NCC(C)C)c(=O)oc2cc3c(cc12)CCC(C)(C)O3	i	-1.8	-4.3	-2.1	-2.9	0.9%	-1.3	-2.4	0.685
C[C@@H]1CN([C@H](C)CO)C(=O)c2cc(NC(=O)CCC(F)(F)F)ccc2O[C@@H](C)CCCCO[C@H]1CN(C)C(=O)Nc1ccc2c(c1)OCO2	i	-4.6	-0.4	-0.4	1.0	.	.	.	.
CCCc1nc2ccc([N+](=O)[O-])cc2[nH]1	i	8.9	8.4	-1.9	1.6	.	3.6	-1.7	0.689
CN1C(=O)c2cc(NC(=O)Cc3ccccc3)ccc2OC[C@H]2O[C@H](CC(=O)NC3CCC3)CC[C@@H]21	i	-1.8	6.6	-3.8	0.7	.	.	.	.
O=C(CN1C(=O)C2C3CCC(C3)C2C1=O)N1CCN(Cc2ccccc2)CC1 (centres undefined)	i	8.3	6.6	-0.3	5.8	3.6%	1.6	1.1	0.678
CC(C)(C)[S@@](=O)N1Cc2cc(C(=O)N3CCCCC3)nc(-c3cccc(-c4ccc(F)cc4)c3)c2[C@H]1CCO	i	-6.3	-23.4	33.7	0.8	.	.	.	.
COc1ccc(CCC(C)NCc2ccc(C(F)(F)F)cc2)cc1 (centres undefined)	i	-15.7	-17.8	0.3	0.2	.	-0.7	0.0	0.632
Cc1cc(NC(=O)C2CC(=O)N(c3cccc(C)c3C)C2)no1 (centres undefined)	i	7.4	10.7	0.8	44.1*	.	0.3	-0.7	0.676
C[C@H]1CN([C@@H](C)CO)C(=O)c2cccc(NC(=O)C3CCOCC3)c2O[C@H]1CN(C)Cc1ccncc1	i	1.5	9.4	-1.7	-0.2	.	.	.	.
c1ccc(-c2cn(-c3ccccc3)c3ncnc(N4CCCCC4)c23)cc1	i	4.4	9.2	0.2	6.5	-6.4%	-1.7	-20.9	0.776
CCNC(=O)c1ccccc1CCc1ccccc1	i	7.1	-3.1	-2.2	3.1	-0.1%	3.7	0.2	.
Cc1ccc(S(=O)(=O)N2CCC3(CC2)CC(=O)c2ccccc2O3)cc1	i	-19.8	-19.2	5.8	-0.3	-0.2%	4.3	-1.8	0.689
O=C(COC(=O)/C=C/c1cccc(Cl)c1)Nc1ccc(N2CCOCC2)cc1	i	13.8	15.2	2.9	0.8	-6.9%	4.5	-3.6	0.731
C[C@H]1CCCCO[C@@H](CN(C)Cc2ccc(C(=O)O)cc2)[C@@H](C)CN([C@@H](C)CO)C(=O)c2cc(NC(=O)Cc3ccccc3)ccc2O1	i	0.8	2.6	0.1	2.8	.	.	.	.
COc1ccc(/C=C(/C#N)C(=O)Nc2cccc(C)c2C)cc1C(=O)O	.	.	.	.	.	4.1%	-2.8	7.0	.
COc1ccc(C(=O)O)cc1F	.	.	.	.	2.1	-4.0%	-2.4	-4.1	0.697
Cn1c(=O)n(C)c2cc(CNC(=O)[C@H]3O[C@@H](n4cnc5c(N)ncnc54)[C@H](O)[C@@H]3O)ccc21	i	1.3	3.8	-0.2	-0.8	.	-1.1	.	.
COc1cccc(NC(=O)c2cc(-c3ccncc3)nc3c(C)cc(C)cc23)c1	i	12.2	8.7	9.4	-2.2	5.2%	1.2	-3.3	0.742
CCOc1ccccc1Nc1nnc(SCC(=O)NC(=O)c2cccn2C)s1	i	-4.2	1.9	0.0	-0.6	1.8%	0.5	-14.0	.
COc1ccccc1S(=O)(=O)N[C@@H]1CC[C@H](CC(=O)N2CCN(C)CC2)O[C@H]1CO	i	2.8	1.7	-2.6	0.3	.	.	.	.
O=C(CCSCCC(=O)Nc1ccccc1F)Nc1ccccc1F	.	.	.	.	.	.	-0.4	-3.1	0.657

Quoted from the listing.
COc1cccc(NC(=O)c2cc(-c3ccncc3)nc3c(C)cc(C)cc23)c1 | Vif A3G: 5.2%
O=C(CCSCCC(=O)Nc1ccccc1F)Nc1ccccc1F | ALR H2O2 inh: -3.1
CCOc1ccccc1Nc1nnc(SCC(=O)NC(=O)c2cccn2C)s1 | Vif A3G: 1.8%
